Assay outcomes deposited in PubChem by National Center for Advancing Translational Sciences (NCATS).
StopGo FLuc: FMDV 2A StopGo reporter, firefly signal | Potency, µM (top dose mostly 57.5 µM), for inactives: top-dose signal change, negative = less light | AID 1745856 | HEK cells with a luciferase reporter of 2A StopGo recoding | actives 0.23% (n = 120,000); active = well fitted falling curve with a large enough effect; inconclusive = small, poorly fitted or top-dose-only effect; inactive = no such curve, though single readings can be large or run the other way; further: nearly all actives have a fitted effect of over 60% in size; overnight with compound
StopGo RLuc: lowers the Renilla signal of an FMDV 2A StopGo reporter; HEK cells with a luciferase reporter of 2A StopGo recoding; Potency, µM (titrated, usually from 57.5 µM), for the others: at the top dose signal change, negative = less light; actives 0.32% (n = 120,000); AID 1745857; active means well fitted falling curve with a large enough effect; inconclusive means small, poorly fitted or top-dose-only effect; inactive means no such curve, though single readings can be large or run the other way; further: nearly all actives have a fitted effect of over 55% in size; overnight with compound
Starred values were filed as active, the others as inactive; ? = inconclusive; & = joins results of further samples; [ ] = another dose, or the depositor's remark. On the % scale 0 is the no-effect control and ±100 the full control effect; potency means the concentration at half of the fitted maximal effect.

SMILES	StopGo FLuc	StopGo RLuc
CCN(CC)C(=S)Sc1ccc([N+](=O)[O-])cc1	2µM*	-5%
Cc1cccc(N2CCN(C(=O)Cn3nc(Cc4cccnc4)c4ccccc4c3=O)CC2)c1C	?	?
CC1CCCCN1C(=O)c1ccc2c(c1)N(Cc1ccc(F)cc1)C(=O)c1ccccc1S2(=O)=O (stereo not given)	-9%	5%
Cc1ccc(C)c(NC(=O)CN(CCc2ccccc2)S(=O)(=O)c2ccccc2)c1	-13%	-1%
Cc1cccc(S(=O)(=O)c2cn(Cc3ccccc3)c3cc(N4CCOCC4)c(F)cc3c2=O)c1	-13%	19%
COc1cccc(C(=O)Nc2ccc3oc(-c4ccc(OC)c(Cl)c4)nc3c2)c1	17%	-1%
COc1ccc(C2CC(=O)c3cc(-c4nc(-c5cccc([N+](=O)[O-])c5)cs4)c(=O)n(-c4cc(C)cc(C)c4)c3C2)cc1 (stereo not given)	-16%	-9%
Cc1ccc(-n2c(=O)c3ccc(C(=O)NCc4ccco4)cc3n(Cc3ccccc3C#N)c2=O)cc1	-17%	13%
CC(C)OCc1ccccc1CNS(=O)(=O)c1ccc(F)cc1	-2%	121%[activator]
COc1ccc(C(=O)N/C(=C\c2ccc(-c3cccc(C(F)(F)F)c3)o2)C(=O)NC(C)(C)C)cc1	4%	14%
Oc1cccc(Oc2ccccc2)c1	0%	5%
Cc1ccc(S(=O)(=O)NC(C)C(=O)OCc2coc(-c3cccs3)n2)cc1 (stereo not given)	21%	-11%
COc1ccc(CNC(=O)C(C)OC(=O)c2cc(Cl)c[nH]2)cc1 (stereo not given)	-1%	6%
Cc1coc2cc3oc(=O)c(CC(=O)NCc4ccccc4)c(C)c3cc12	1%	86%[activator]
CCC1CCCCN1S(=O)(=O)c1ccc(NC(=O)c2snnc2C)cc1 (stereo not given)	18µM*	?
Clc1ccc(Oc2cc(-c3nc4ccccc4s3)c3ccccc3n2)cc1	-5%	-3%
Cc1ccc(Oc2ccccc2NC(=O)Cn2nc(C(N)=O)c3ccccc3c2=O)cc1	-7%	-6%
CC1CCCN(Cc2c(O)ccc3c(=O)c(Oc4ccccc4Cl)c(C(F)(F)F)oc23)C1 (stereo not given)	-13%	-7%
Cc1ccc(C)c(N2CCN(C(=O)C3CCCN(S(=O)(=O)c4ccc5c(c4)oc(=O)n5C)C3)CC2)c1 (stereo not given)	?	?
COc1ccc(-c2cc(C(C)=O)c(C)n2CCC(=O)Nc2ccc(C)c(Cl)c2)cc1	-16%	-2%
Cc1ccc(C)c(C(NC(=O)C2CC2)c2cccnc2)c1 (stereo not given)	1%	-11%
FC(F)(F)c1ccc(Cl)c(N/N=C/c2cccc(Br)c2)c1	12%	2%
CC(=O)NNC(=S)Nc1ccc(F)cc1F	0%	12%
CN(C)S(=O)(=O)N(CC(=O)N1CCN(c2ccccc2)CC1)c1ccc(F)cc1	19%	9%
O=c1oc2ccc(Cl)cc2cc1-c1nc(-c2ccccc2)cs1	1%	-9%

The list continues.
SMILES	StopGo FLuc	StopGo RLuc
CCCn1nc(C(=O)NCC(C)(C)N2CCOCC2)c2ccccc2c1=O	9%	28%
O=C(Nc1c(-c2ccc(F)cc2)nc2sccn12)c1cccc(S(=O)(=O)N2CCOCC2)c1	20%	56%[activator]
CC(C)NC(=O)CSc1nc2ccccc2nc1N1CCCCC1	17%&-10%	17%&-8%
CC1CCCCN1C(=O)CSc1nnc(-c2ccccc2Cl)o1 (stereo not given)	80%[activator]	37%[activator]
COc1cccc(-c2ccc(-c3noc(-c4ccccc4OC)n3)c(OC)n2)c1	83%[activator]	-8%
Cc1ccc(-n2c(/C=C/c3ccc(Br)s3)nc3ccccc3c2=O)cc1	?	?
O=C(Cn1c(=O)nc(-c2ccccc2)c2cc(Cl)ccc21)Nc1ccc(F)c(Cl)c1	-6%	-11%
COc1ccccc1NC(=O)c1ncoc1-c1cccc(C)c1	47%[activator]	-6%
N#Cc1ccc(NC(=O)COC(=O)c2nc(-c3ccccc3)n(-c3ccccc3)n2)cc1	-3%	-12%
CCCN(CCC)CC1=C(C(=O)OCC)C(c2ccc(C)cc2)NC(=O)N1 (stereo not given)	7%	12%
NS(=O)(=O)c1ccc(NC(=O)c2cc(-c3cccc4ccccc34)n[nH]2)cc1	-3%	-12%
CCCn1nc(C(=O)N(CC)CC2CCOC2)c2ccccc2c1=O (stereo not given)	0%	-2%
COc1ccccc1Nc1ncc2c(n1)CCN(CC(C)C)C2	174%[activator]	6%
NS(=O)(=O)c1ccc(CCNC(=O)CCn2c(=O)c3cccn3c3cccnc32)cc1	-19%	-13%
Cc1ccc(S(=O)(=O)N2CCN(C(=O)CCn3ccc4ccccc43)CC2)cc1	-9%	-16%
Cc1ccc(Cl)cc1NS(=O)(=O)c1cc(-c2ccno2)oc1C	-1%	263%[activator]
CC(NC(=O)c1ccccc1F)C(C)(C)C (stereo not given)	-10%	-8%
CCCCN1C(=O)C(NC(=O)c2ccc(C(C)(C)C)cc2)(C(F)(F)F)C(C(=O)OC)=C1C (stereo not given)	3%&-18%	-3%&-10%
CC(Sc1nnc(Nc2cccc(Cl)c2)s1)C(=O)N(C)c1ccccc1 (stereo not given)	?	-25%
CC(NC(=O)CSc1nc2nc[nH]c2c(=O)[nH]1)c1ccccc1 (stereo not given)	-9%	-11%
COc1ccc(-c2c(C)oc3cc(OCC(=O)N4CCC(C(N)=O)CC4)ccc3c2=O)cc1	77%[activator]	7%
CCOc1ccc(OCC(O)Cn2c(C)cc(=O)n3ncnc23)cc1 (stereo not given)	-7%	-19%
N#C/C(=C(/O)c1ccccc1)c1nc2ccccc2[nH]1	79%[activator]	20%
COc1ccc(OC)c2[nH]c(C(=O)NCC(=O)NCC(=O)O)cc12	-2%	-8%
CCc1sc(C(=O)OC(C)C(=O)Nc2cc(C)no2)cc1C (stereo not given)	25%	9%

Next section.
SMILES	StopGo FLuc	StopGo RLuc
CCOc1ccccc1C(=O)NC1(C(F)(F)F)C(=O)Nc2c1c(=O)[nH]c(=O)n2-c1ccccc1 (stereo not given)	-15%	2%
CCOC(=O)c1cc(-c2ccccc2)n(CCC(=O)NCCc2ccc(C)cc2)c1C	-11%	0%
O=C(COc1ccccc1Cl)Nc1nc(-c2ccc(F)cc2)ns1	-2%	-6%
COc1cc(Nc2nc(SCC(=O)c3ccc(Br)cc3)nc3ccccc23)cc(OC)c1	-7%	23%
Cc1cc(C(=O)N/N=C/c2ccc(C(C)C)cc2)c2ccccc2n1	50%[activator]	37%[activator]
COC(=O)c1c(NC(=O)C2CCCCC2)sc(C(=O)N(C)C)c1C	4%	44%[activator]
CCc1nc(C)c(C(=O)O)s1	-4%	6%
CC(=O)c1ccc(NC(=O)COC(=O)c2cc(C)nc3ccccc23)cc1	18%	2%
CCN(CC)c1ccc2nnc(CCC(=O)N3CCOCC3)n2n1	6%	-7%
CCOc1ccc(C(=O)N2CCC(c3noc(-c4ccc(S(=O)(=O)N5CCCC5)cc4)n3)CC2)cc1	-11%	5%
COc1cccc(CNC(=O)Cc2c(C)c3ccc(OC)c(C)c3oc2=O)c1	-8%	-10%
O=C(Nc1ccc(OCc2cc(=O)n3c4c(sc3n2)CCCC4)cc1)c1cccc(F)c1	1%	-2%
CCn1nc(C(=O)N(C)C(c2ccccc2)c2ccccc2)c2ccccc2c1=O	?	1%
CCc1ccc(CNC2CC2)cc1	-6%	-11%
CC(=O)C1=C(OC(=O)c2ccc(C)cc2)c2ccccc2S(=O)(=O)N1C(C)C	0%	47%[activator]
O=C(CCC(=O)N1CC2CCCN2c2ccccc21)NCc1ccccc1Cl (stereo not given)	-25%	-23%
COCCNC(=O)CSc1cc(C(=O)NC2CC2)c2ccccc2n1	-5%	-2%
c1ccc(CNC2(c3nnnn3-c3ccccc3)CCCCC2)cc1	?	34%[activator]
Cc1cccc(OC(=O)c2ccc(-c3ccccc3)cc2)c1	-13%	-15%
Cn1c(-c2ccc3ccccc3c2)cc2ccccc21	179%[activator]	6%
CCC(=O)Nc1ccc(-c2nc3ccccc3o2)cc1	107%[activator]	11%
Cc1ccc(CN(C)Cc2ccc(C#N)cc2)o1	11%	-7%
COc1ccc(N2C(=O)CN(Cc3ccc4c(c3)OCO4)[C@H]3CS(=O)(=O)C[C@H]32)cc1Cl	1%	6%
NNc1ccccc1[N+](=O)[O-]	181%[activator]	16%
COc1cccc(NC(=O)N(CCC(C)C)C2CCN(C(C)C)CC2)c1	37%[activator]	8%

Some of these compounds in order of molecular weight, falling.
SMILES	StopGo FLuc	StopGo RLuc
NS(=O)(=O)c1ccc(CCNC(=O)CCn2c(=O)c3cccn3c3cccnc32)cc1	-19%	-13%
Cc1ccc(Cl)cc1NS(=O)(=O)c1cc(-c2ccno2)oc1C	-1%	263%[activator]
CCOc1ccc(OCC(O)Cn2c(C)cc(=O)n3ncnc23)cc1 (stereo not given)	-7%	-19%
NNc1ccccc1[N+](=O)[O-]	181%[activator]	16%

Further entries follow:
SMILES	StopGo FLuc	StopGo RLuc
CCOc1ccc(-n2c(SCC(=O)N3CCCc4ccccc43)nc3c([nH]c4ccccc43)c2=O)cc1	-8%	-18%
CC(NC(=O)C1CCN(c2ccc(C#N)cn2)CC1)c1ccc(Cl)cc1Cl (stereo not given)	11%	5%
COc1ccccc1CNC(=O)CN(c1ccccc1)S(=O)(=O)N(C)C	2%	5%
CCn1c(-n2nc(C)c(C)c2C)nc2c1c(=O)n(CC(=O)C(C)(C)C)c(=O)n2C	10%	-8%
CC(C)COc1ccc(C(=O)N2CCN(CCc3ccncc3)CC2)cc1	14%	-6%
Cc1c(Cl)cccc1NC(=O)Nc1nnc(N(C)Cc2ccccc2)s1	-6%	0%
Cc1cc(C)nc(Nc2ncc(O)n2-c2ccc(Cl)cc2)n1	-2%	0%
COc1cc(OC)cc(-c2nnc(SCC(=O)N3CCC(C)CC3)o2)c1	?	8%
O=C(NCCCc1ccccc1)c1cccc2cccnc12	181%[activator]	53%[activator]
O=C(NCc1cccc(Cl)c1)c1cccc2c1C(=O)N(C1CCCCC1)C2	-3%	-6%
Cc1cccc(C)c1NC(=O)CN(C)S(=O)(=O)c1c(C)noc1C	-4%	-3%
Cn1c(=O)c2c(nc(NC3CCCCC3)n2Cc2ccc(Cl)c(Cl)c2)n(C)c1=O	-1%	1%
CC(C)CCSCC(=O)NCc1cccc(CN2CCCC2)c1	0%	-5%
N#Cc1nc(-c2cccs2)oc1N1CCN(c2ccccc2)CC1	4%	3%
c1cc(CNCc2ccc3c(c2)OCO3)c2cc[nH]c2c1	9%	-8%
O=C(O)C(c1c[nH]c2cc(F)ccc12)N1CCN(Cc2ccccc2)CC1 (stereo not given)	-13%	-17%
CCc1cccc(C)c1NC(=O)CCn1c(=O)c2cccn2c2ccccc21	-13%	0%
C=CCNC(=S)NNC(=O)C(C)(C)O	-2%	9%
CN1CC(=O)N(CC(=O)Nc2ccc(Cl)c(C(F)(F)F)c2)c2ccccc2C1=O	-12%	-2%
Cc1c(C2=CCN(S(=O)(=O)c3cccc(Cl)c3)CC2)c2ccccc2n1CC(=O)N1CCCC1	-30%	23%
COc1cc(CC(=O)NC2CCS(=O)(=O)C2)cc(OC)c1OC (stereo not given)	-3%	-7%
Cc1ccc(NC(=O)c2cccc(C(F)(F)F)c2)c(Cl)c1	94%[activator]	-14%
O=C(CCn1c(=O)oc2cc(S(=O)(=O)N3CCCC3)ccc21)Nc1ccc(F)c(F)c1	5%	-2%
Cn1cc(CC(=O)Nc2ccc(C(F)(F)F)cc2)c2ccccc21	2%	0%
COc1ccc(S(=O)(=O)c2cnc3ccc(Cl)cc3c2N2CCCCC2C)cc1 (stereo not given)	15%	60%[activator]

Some values from the list:
COc1ccc(S(=O)(=O)c2cnc3ccc(Cl)cc3c2N2CCCCC2C)cc1 (stereo not given) in StopGo FLuc: 15%
O=C(CCn1c(=O)oc2cc(S(=O)(=O)N3CCCC3)ccc21)Nc1ccc(F)c(F)c1 in StopGo FLuc: 5%

Other records
SMILES	StopGo FLuc	StopGo RLuc
CCCn1c(=O)n(CC(=O)Nc2ccccc2OCC)c(=O)c2c1nc(C)n2CCOC	3%	2%
O=C(/C=C/c1ccccc1Cl)N[C@@H]1C[C@H]2CC[C@@H]1C2	235%[activator]	10%
Cc1ccc(C(=O)NC(NC(=O)c2ccc(Cl)cc2)C(Cl)Cl)cc1 (stereo not given)	20%	35%[activator]
COc1cc(CC(C)N)c(OC)cc1Br (stereo not given)	1%[27 µM]	-14%[129 µM]
COc1ccc(CNC(=O)c2c(O)nc3cc(C)ccn3c2=O)cc1	-10%	-9%
C=CCNCc1ccccc1OCc1ccc(C)cc1	25%	-18%
Cc1ccc(C2NC(=O)c3n[nH]c(-c4cccs4)c32)cc1 (stereo not given)	-13%	-2%
Cc1ccc(C)c(/C(O)=C2\C(=O)C(=O)N(c3nnc(C)s3)C2c2ccc(Br)cc2)c1 (stereo not given)	163%[activator]	21%
Nc1nccnc1C(=O)NCc1csc(Br)c1	0%	5%
N#Cc1nc(-c2cccs2)oc1N1CCCCC1	3%	54%[activator]
CC1=C(C(=O)Nc2ccc(F)cc2)C(c2ccc(N(C)C)cc2)NC(=O)N1 (stereo not given)	-17%	0%
CCCCCCCCCS(=O)(=O)N/N=C/c1ccc([N+](=O)[O-])cc1	-10%	-7%
COc1ccc2c(C)c(CC(=O)Nc3ccc(F)cc3F)c(=O)oc2c1OC	28%	15%
CCOc1ccc(C(=O)Nc2ccc3sc(NC(=O)C(C)C)nc3c2)cc1	14%	-6%
C/C(=N/NC(=O)c1ccc(Cl)cc1)C1CC1	93%[activator]	17%
O=C(NCCC(=O)N1CCCC1)C1CCCCC1	-6%	-9%
COc1ccc(NC(=O)Cn2c(=O)n(-c3ccccc3)c(=O)c3c4c(sc32)CCCC4)cc1	-25%	-12%

No enrichment for hits (roughly 0.53% active in at least one column).
